Assay outcomes: PubChem, Broad Institute
FGF22 binding: shifts melting point of recombinant human FGF22. Q9HCT0. recombinant FGF22 thermal shift, SYPRO orange fluorescence; percent of sucrose octasulfate shift, DMSO zero. calls only at 9.99 µM. hit rate 1.5% among 340,000. AID 651658;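 active means melting point raised past a set limit in the mean and every replicate; three in four hits are not shown here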
Target sequence (Q9HCT0 whole entry, looked up): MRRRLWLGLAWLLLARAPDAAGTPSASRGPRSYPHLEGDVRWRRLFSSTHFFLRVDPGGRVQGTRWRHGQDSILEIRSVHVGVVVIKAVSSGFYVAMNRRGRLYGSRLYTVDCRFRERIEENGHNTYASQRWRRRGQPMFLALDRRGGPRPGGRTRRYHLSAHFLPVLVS
Ecoli rRNA inh: inhibits bacterial ribosomal RNA function over humanized ribosomes; hit rate 1.6% among 350,000; AID 720706; GFP signal change (wild-type ribosome), % (concentration not given with the values); E. coli WT GFP vs humanized-ribosome RFP mutants, fluorescence, 24 h; active compounds read low; DMSO median 0, no signal -100;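 active means significant combined selectivity score with lowered wild-type GFP, culture density cut under 30%, mutant RFP and density less affected; inactive means any of these conditions unmet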; further: one replicate is shown; some compounds called inactive have numbers as strong as hits
MLL AF4-AF9 inh: blocks AF4 peptide binding to human AF9 | P42568 | AlphaScreen, biotin-AF4 peptide binding to FLAG-AF9 | inhibition, % at 10 µM | hit rate 0.47% among 350,000;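 active means every replicate reaching a set inhibition limit, whatever the replicate mean, cut at about 25% in these data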;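 further: 0% = plate neutral control median and 100% = total signal loss; the record names both 10 and 1 µM as test concentration; the first replicate is given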
Target sequence (P42568 whole entry, looked up): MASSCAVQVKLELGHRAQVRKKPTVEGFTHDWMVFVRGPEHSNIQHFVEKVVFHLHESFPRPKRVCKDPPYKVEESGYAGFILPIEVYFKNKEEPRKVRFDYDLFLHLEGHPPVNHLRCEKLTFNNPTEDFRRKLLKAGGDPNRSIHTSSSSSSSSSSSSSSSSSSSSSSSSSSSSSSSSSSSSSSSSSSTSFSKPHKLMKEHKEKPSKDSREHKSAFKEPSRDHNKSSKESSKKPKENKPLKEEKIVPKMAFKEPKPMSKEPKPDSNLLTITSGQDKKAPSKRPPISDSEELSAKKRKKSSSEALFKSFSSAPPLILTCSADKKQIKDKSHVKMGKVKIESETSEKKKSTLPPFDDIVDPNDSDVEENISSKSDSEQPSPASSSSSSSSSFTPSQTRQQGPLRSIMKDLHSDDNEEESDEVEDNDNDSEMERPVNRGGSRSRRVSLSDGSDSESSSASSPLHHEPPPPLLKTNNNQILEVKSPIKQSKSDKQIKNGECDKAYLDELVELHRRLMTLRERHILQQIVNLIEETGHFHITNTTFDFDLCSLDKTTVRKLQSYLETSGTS
Ecoli rRNA inh OD600: second read-out of Ecoli rRNA inh, no call of its own (marks repeat the call); OD600 change, %; measured here: OD600 growth;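 optical density of the mix in the first replicate; 0 = DMSO median and -100 = no signal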
Ecoli rRNA inh RFP: recorded beside Ecoli rRNA inh, whose call it bears; RFP signal change, %; measured here: RFP humanized mutant strains;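 first replicate; 0 = DMSO median and -100 = no signal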
Starred values were filed as active, the others as inactive; i = inactive; · = no result given. Some of the compounds tested, so the mix of outcomes need not match the whole.

The line under a structure holds: FGF22 binding, Ecoli rRNA inh, Ecoli rRNA inh OD600, Ecoli rRNA inh RFP, MLL AF4-AF9 inh
- CCCc1nc2ccc(C(=O)OC)cn2c1Cc1cccc(F)c1
  i, -3.9, -10.0, -3.1, 1.3
- COc1ccc(CC(=O)Nc2ccc(F)c(S(=O)(=O)N3CCOCC3)c2)cc1
  i, 0.4, 3.9, -0.9, 7.4
- C[C@H](CO)N1C[C@H](C)[C@@H](CN(C)C(=O)c2ccccc2)OCc2ccccc2-c2ccccc2C1=O
  i, 2.9, 3.8, -2.1, -3.0
- C[C@@H]1CN([C@@H](C)CO)S(=O)(=O)c2ccc(-c3cccc(F)c3)cc2O[C@H]1CN(C)C(=O)Nc1cc(F)ccc1F
  i, 0.1, 7.4, -0.6, 0.1
- O=C(NCC[C@@H]1CC[C@@H](NS(=O)(=O)c2ccc(F)cc2)[C@H](CO)O1)Nc1ccc(F)cc1
  i, -7.2, -7.0, 0.0, 20.2
- O=C1NC(=O)C(=Cc2ccc(Cl)c(Cl)c2)S1
  i, -43.4, -48.7, -3.6, -3.8
- COc1cccc(-c2cnc3c(c2)C(=O)N([C@H](C)CO)C[C@H](C)[C@H](CN(C)C(=O)Nc2ccccc2F)O3)c1
  i, -4.3, 4.5, 0.4, 1.1
- Cc1cc(Cl)ccc1OCC(=O)N(Cc1ccco1)c1c(N)n(Cc2ccccc2)c(=O)[nH]c1=O
  i, 18.1, 13.4, 4.1, 0.3
- CC(C)NC(=O)N(C)C[C@@H]1Oc2cc(C#CCN(C)C)ccc2S(=O)(=O)N([C@H](C)CO)C[C@H]1C
  i, 6.7, 10.0, -1.2, -1.4
- O=C(c1ccncc1)N1CC2(C1)[C@H](c1ccccc1)[C@H](CO)N2CC1CCCC1
  i, -1.4, -6.9, 0.4, 1.9
- C[C@@H]1CCCCO[C@H](CN(C)S(=O)(=O)c2ccccc2)[C@H](C)CN([C@@H](C)CO)C(=O)c2cc(NC(=O)c3ccccc3)ccc2O1
  i, 1.1, 3.7, -1.0, -0.9
- CO[C@@H]1CN(C)C(=O)c2ccc(NC(=O)Nc3ccccc3F)cc2OC[C@H](C)N(C)C[C@H]1C
  i, 0.3, 0.4, -2.3, -10.0
- Cc1nccn1CCC(=O)NC1CCCc2c1cnn2-c1ccc(C(C)(C)C)cc1 (configuration not stated)
  i, 2.8, -9.4, 13.2, 8.6
- C[C@H]1CCCCO[C@@H](CN(C)C(=O)Nc2ccc3c(c2)OCO3)[C@@H](C)CN([C@@H](C)CO)C(=O)c2cc(NC(=O)CCC(F)(F)F)ccc2O1
  i, 0.7, -9.0, -1.1, 3.2
- O=C(C[C@@H]1C=C[C@@H](NC(=O)c2cccnc2)[C@@H](CO)O1)NCCN1CCCCC1
  i, 4.4, 6.8, 0.9, -0.5
- CO[C@@H]1CN(C)C(=O)c2ccc(NS(=O)(=O)CC(F)(F)F)cc2OC[C@@H](C)N(C)C[C@H]1C
  i, -0.8, 0.7, 0.0, -5.2
- COc1ccc(S(=O)(=O)N[C@@H]2CC[C@@H](CC(=O)NCc3ccccc3F)O[C@@H]2CO)cc1
  i, 5.1, 4.5, 0.5, -1.0
- CCC(=O)N1CC2(C1)CN(C(=O)NC1CCCC1)[C@H](CO)c1c2c2ccc(OC)cc2n1C
  i, -0.5, 8.2, -0.7, -3.0
- COc1ccc(S(=O)(=O)Nc2ccc3c(c2)C(=O)N([C@@H](C)CO)C[C@H](C)[C@H](CN(C)S(=O)(=O)c2ccccc2)O3)cc1
  i, 6.9, 4.9, 0.9, 3.1
- CCCNC(=O)N1[C@@H](C#N)[C@H](c2ccc(C#Cc3cccc(F)c3)cc2)[C@@H]1CO
  i, -34.5, -72.4, -9.9, -6.4
- CC[C@]1(C(=O)OC)[C@H]2C(=O)N(C)C(=O)[C@H]2[C@H]2CN=C(SCc3ccc(C#N)cc3)N21
  ·, -4.7, -15.2, -4.1, -6.5
- C[C@@H]1CN([C@@H](C)CO)C(=O)c2cccc(NS(C)(=O)=O)c2O[C@@H]1CN(C)Cc1ccncc1
  i, 1.7, 6.6, -2.6, -4.2
- C[C@H](CO)N1C[C@H](C)[C@@H](CN(C)Cc2ccncc2)Oc2ncc(C#CC3CCCCC3)cc2C1=O
  i, -16.6, -39.8, -0.7, -1.7
- C[C@@H]1CCCCO[C@@H](CN(C)C(=O)Nc2ccc(C(F)(F)F)cc2)[C@@H](C)CN([C@H](C)CO)C(=O)c2cc(NC(=O)CCCCCC(=O)Nc3ccccc3N)ccc2O1
  i, 2.6, 14.5, -1.0, -6.3
- C[C@@H]1CCCCO[C@H](CN(C)C(=O)CCC(F)(F)F)[C@@H](C)CN([C@@H](C)CO)C(=O)c2cc(NC(=O)CCC(F)(F)F)ccc2O1
  i, -2.6, -0.9, 0.3, -3.1
- CNC[C@H]1Oc2c(NC(=O)Nc3ccc4c(c3)OCO4)cccc2C(=O)N([C@H](C)CO)C[C@H]1C
  i, 2.0, 5.2, -2.5, 5.7
- C[C@@H]1CN([C@H](C)CO)S(=O)(=O)c2ccc(-c3cncnc3)cc2O[C@H]1CN(C)C(=O)C1CCCCC1
  i, 3.2, 10.4, -1.9, 5.5
- COCC(=O)Nc1ccc2c(c1)[C@@H]1C[C@@H](CC(=O)NCc3cccnc3)O[C@H](CO)[C@@H]1O2
  i, 4.3, 4.2, 1.9, -2.5
- O=C(NCC[C@H]1CC[C@H](NS(=O)(=O)Cc2ccccc2)[C@H](CO)O1)C1CC1
  i, 0.3, 4.7, 0.7, 0.1
- O=C(NCC[C@@H]1CC[C@@H](NS(=O)(=O)c2cccc(F)c2)[C@@H](CO)O1)Nc1cc(F)ccc1F
  i, -3.9, -6.7, -1.6, 2.3
- CC(C)NC(=O)N(C)C[C@H]1Oc2ccc(NC(=O)CCN3CCOCC3)cc2C(=O)N([C@H](C)CO)C[C@H]1C
  i, -1.6, 6.3, -0.6, -1.2
- COc1ccc(CN2C(=O)CCC2(C)c2nnnn2Cc2ccccc2)cc1OC (configuration not stated)
  i, 4.4, 11.2, -1.7, -1.4
- COc1ccccc1-c1cnc(C(O)c2cccc(C)c2C)[nH]1 (configuration not stated)
  i, 0.2, -1.4, 3.2, 4.6
- C[C@@H]1CCCCO[C@H](CN(C)Cc2ccc(Cl)c(Cl)c2)[C@@H](C)CN([C@H](C)CO)C(=O)c2cc(NC(=O)C3CCCCC3)ccc2O1
  i, 3.5, 2.5, -0.3, 2.0
- CC(=O)NC(c1ccco1)c1cc(Cl)c2cccnc2c1O (configuration not stated)
  i, -48.9, -71.8, -15.5, -2.0
- CO[C@@H]1CN(C)C(=O)c2cc(NC(=O)C3CCCC3)ccc2OC[C@@H](C)N(CCC(F)(F)F)C[C@@H]1C
  i, -6.0, -9.3, 4.7, -1.8
- Cc1cc2nc(-c3nnnn3C3CCCCC3)c(=O)[nH]c2cc1C
  i, 4.9, 8.1, -2.7, -1.3
- COc1ccc(CNC(=O)/C=C/[C@H]2O[C@@H](n3cc(C)c(=O)[nH]c3=O)C[C@@H]2O)cc1
  i, 0.6, 5.8, -4.0, 0.0
- C[C@H]1COc2cccc(N3CCN(Cc4ccccc4F)CC3)c2S(=O)(=O)N1
  i, 10.0, 7.7, 1.3, -0.4
- NC(c1csc(Nc2cc(Oc3ccccc3)ncn2)n1)C1CCCCC1 (configuration not stated)
  i, -60.6, -80.9, -22.1, 19.8
- O=C(CC1CC1)Nc1ccc2c(c1)[C@H]1C[C@H](CC(=O)NC3CCCC3)O[C@@H](CO)[C@H]1O2
  i, 3.1, 3.0, 0.5, -0.7
- COc1ccc(S(=O)(=O)N(C)C[C@@H]2Oc3ncc(C#CC4(O)CCCC4)cc3C(=O)N([C@@H](C)CO)C[C@H]2C)cc1
  i, -3.4, -2.7, 3.3, -1.1
- C[C@@H]1CCCCO[C@@H](CN(C)C(=O)Nc2ccc3c(c2)OCO3)[C@H](C)CN([C@H](C)CO)C(=O)c2cc(NC(=O)Nc3ccccc3)ccc2O1
  i, 0.3, 1.1, -0.2, 1.9
- C=CCNc1ncnc2c1ncn2[C@H]1CN(C2CCCC2)C[C@@H](CO)O1
  i, 5.1, -4.9, 0.2, -0.3
- CCCN=C1N(C)C[C@@H]2[C@@H]3C(=O)N(C)C(=O)[C@@H]3[C@](Cc3ccccc3)(C(=O)OC)N12
  ·, 3.0, 5.7, 1.6, -1.5
- OC(c1ccccc1)c1nc(-c2ccccc2)cs1 (configuration not stated)
  i, -5.7, -13.3, -1.9, -3.1
- C[C@@H]1CN([C@@H](C)CO)C(=O)c2cc(Br)cnc2O[C@@H]1CN(C)Cc1cccc(F)c1
  i, 4.5, 5.1, -0.9, 2.1
- CCOC(=O)C1(C)CCCN(C(=O)c2ccc3c(c2)OCO3)C1 (configuration not stated)
  i, 7.1, -12.5, 0.6, -4.3
- COc1ccc(S(=O)(=O)N[C@H]2C=C[C@H](CC(=O)NCc3ccccc3F)O[C@H]2CO)cc1
  i, -2.1, -4.2, -3.2, -10.3
- COc1cccc(-c2cn(CC[C@@H]3CC[C@H](NC(C)=O)[C@H](CO)O3)nn2)c1
  i, 2.1, 12.0, -1.2, -1.2
- C[C@@H]1CCCCO[C@@H](CN(C)C(=O)c2ccccc2)[C@H](C)CN([C@@H](C)CO)C(=O)c2cc(NC(=O)Nc3ccc4c(c3)OCO4)ccc2O1
  i, -2.0, -4.7, 0.7, -4.9
- COc1ccccc1NC(=O)N1CCCCN2[C@H](CO)[C@H](c3ccc(-c4cccc(F)c4)cc3)[C@H]2C1
  i, -58.7, -73.3, -12.7, 7.4
- C[C@@H](NC(=O)C[C@H]1CC[C@H](NS(=O)(=O)c2cccc(F)c2)[C@H](CO)O1)c1ccccc1
  i, -2.6, 5.8, -0.6, 0.5
- Cc1sc2nc(CSCC(=O)N(CCC#N)c3ccccc3F)[nH]c(=O)c2c1C
  i, 2.8, 5.4, 2.5, -8.6
- CNC[C@@H]1Oc2ccc(NS(=O)(=O)c3ccc(C)cc3)cc2CC(=O)N([C@@H](C)CO)C[C@@H]1C
  i, 5.1, 4.4, 0.8, 0.4
- CN1CCN(C(=O)C[C@@H]2CC[C@H]3[C@@H](COC[C@@H](O)CN3C(=O)Nc3cc(Cl)cc(Cl)c3)O2)CC1
  i, -32.9, -46.3, 4.1, -1.7
- C[C@H]1CN([C@@H](C)CO)C(=O)c2cc(NC(=O)CCC(F)(F)F)ccc2O[C@H]1CN(C)S(=O)(=O)c1ccc(Cl)cc1
  i, 1.0, -4.0, -0.1, 0.2
- CCCCn1c(N)c(N(C)C(=O)CCCn2c(=O)oc3ccccc32)c(=O)[nH]c1=O
  i, 12.5, 11.5, 5.5, 0.0
- CCOCCCNC(=S)NCCCNc1nc2c(C)c(C)ccc2cc1C#N
  i, -4.5, -12.9, 0.0, -3.4
- Cc1cc(N)ncc1[N+](=O)[O-]
  i, 7.2, 1.2, 14.1, 1.6

A different layout for part of the listing above.
FGF22 binding | Ecoli rRNA inh | Ecoli rRNA inh OD600 | Ecoli rRNA inh RFP | MLL AF4-AF9 inh | smiles
i | -1.6 | 6.3 | -0.6 | -1.2 | CC(C)NC(=O)N(C)C[C@H]1Oc2ccc(NC(=O)CCN3CCOCC3)cc2C(=O)N([C@H](C)CO)C[C@H]1C
i | 4.4 | 11.2 | -1.7 | -1.4 | COc1ccc(CN2C(=O)CCC2(C)c2nnnn2Cc2ccccc2)cc1OC (configuration not stated)

Next section:
The line under a structure holds: FGF22 binding, Ecoli rRNA inh, Ecoli rRNA inh OD600, Ecoli rRNA inh RFP, MLL AF4-AF9 inh
- O=C(COC(=O)c1ccc(F)cc1Cl)Nc1cccc(S(=O)(=O)N2CCOCC2)c1
  i, -2.2, -33.6, -3.9, 1.9
- C[C@@H]1CN([C@H](C)CO)C(=O)Cc2cc(NC(=O)Cc3cn(C)c4ccccc34)ccc2O[C@@H]1CN(C)S(=O)(=O)c1ccccc1
  i, 0.7, -0.5, -0.9, -1.9
- C[C@H](CO)N1C[C@H](C)[C@@H](CN(C)C(=O)CN(C)C)Oc2ncc(C#Cc3cccnc3)cc2C1=O
  i, 4.8, -3.1, 0.4, -4.1
- O=C(C[C@H]1CC[C@@H]2[C@H](COC[C@@H](O)CN2C(=O)Nc2cccc(Cl)c2)O1)N1CCCCC1
  i, -56.6, -79.0, -20.2, -0.6
- Cc1noc(C)c1S(=O)(=O)N(C)C[C@H]1Oc2ccc(NS(=O)(=O)c3ccccc3)cc2CC(=O)N([C@@H](C)CO)C[C@@H]1C
  i, 4.8, 5.6, -0.3, -1.4
- O=C(C1CCOCC1)N1CC2(C1)[C@@H](c1ccccc1)[C@H](CO)N2Cc1ccccc1F
  i, -1.0, 8.6, 0.0, -10.3
- O=C(C[C@H]1C[C@H]2c3cc(NS(=O)(=O)c4ccc(F)cc4)ccc3O[C@H]2[C@@H](CO)O1)N1CCCCC1
  i, -6.0, -5.5, -2.3, -0.1
- CC(C)NC(=O)Nc1ccc2c(c1)CC(=O)N([C@@H](C)CO)C[C@H](C)[C@@H](CN(C)C)O2
  i, 2.0, 6.0, -1.1, -1.9
- C[C@@H]1CN([C@@H](C)CO)C(=O)c2cc(NS(=O)(=O)c3ccccc3)ccc2O[C@H]1CN(C)Cc1ccc(C(=O)Nc2ccccc2N)cc1
  i, -5.7, -15.6, -1.0, -1.1
- CCCN1[C@H](C(=O)NCC2CC2)[C@@H](CO)[C@@H]2Cn3c(ccc(/C=C/c4ccccc4)c3=O)[C@@H]21
  i, -3.2, -20.0, 28.9, -10.1
